Hedgehog cleavage: Hh protein inhibition, biochemical readout – plate reader, single concentration, primary screen (AID 588832) | Biochemical plate reader assay, Hedgehog inhibition; hits give high values | inhibition, % at 30.3 µM | 8,000 tested, under 10 active; in the data active = inhibition from about 57%;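 note: 0% = neutral control wells and 100% = positive control wells; cholesterol-driven self-cleavage of fly hedgehog protein by fluorescence polarization; read one hour after cholesterol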
The depositor's hits bear a star. An excerpt, so the mix of outcomes need not match the whole.

SMILES | Hedgehog cleavage
CCCn1c(CN2CCN(c3cccc(Cl)c3)CC2)nc2c1c(=O)n(C)c(=O)n2C | 4
COc1ccc(NS(=O)(=O)c2cc3c(cc2C)N(C)CCO3)cc1 | 3
CC(Oc1ccc2c3c(c(=O)oc2c1)CCC3)C(=O)N[C@@H](Cc1ccccc1)C(=O)O (stereo partly specified) | 0
Cc1csc2nc(CNS(=O)(=O)c3ccc(-c4ccccc4)cc3)cn12 | 6
CCCc1cc(C(=O)NCc2ccco2)no1 | 8
CCN1CCc2c(sc(NC(=O)Cc3ccccc3)c2C(N)=O)C1 | 19
CCN(CC)C(=O)Cn1ncc2c1-c1ccccc1OC2 | 4
COc1ccc(OC)c(-c2nnc(SCC(=O)NC3CCCCC3)o2)c1 | 2
Cc1nc2sc(C(c3ccco3)N3CCN(c4ccccc4)CC3)c(O)n2n1 (stereo unspecified) | 0
CC(C)OCCCNC(=O)CN1C(=O)CC(C)(C)S(=O)(=O)c2ccccc21 | 15
CCOC(=O)c1c(NC(=O)CS(=O)(=O)c2cn(CC)c3ccccc23)sc2c1CCCCC2 | 2
Cn1c(=O)[nH]c(=O)c2c1nc(N(CCO)Cc1ccccc1)n2CCCc1ccccc1 | 8
O=c1oc(-c2ccc(O)c(O)c2)cc2cccc(O)c12 | 10
COc1ccccc1N1CCN(S(=O)(=O)c2cn(C)c(=O)n(C)c2=O)CC1 | 5
COc1cc2c(cc1OC)C(c1ccc(C)o1)CC(=O)N2 (stereo unspecified) | 1
CN(C(=O)COc1ccccc1)c1nnc(C23CC4CC(CC(C4)C2)C3)s1 | 7
COc1ccc(NC(C)=O)cc1NS(=O)(=O)c1cn(C)c(=O)n(C)c1=O | 8
CC(O)/C=C/C1OC(=O)CC1Nc1ccc(C=O)cc1 (stereo unspecified) | 12
COc1ccc2[nH]cc(CCNC(=O)COc3ccc4ccc(=O)oc4c3)c2c1 | 7
O=C(c1cnc2n(c1=O)CCS2)N1CCc2ccccc21 | 9
COc1ccc2c(c1)c(=O)c(C(=O)c1ccccc1)cn2Cc1ccccc1 | 5
CCCc1nc(SCC(=O)NCc2ccco2)c2c(=O)n(C)c(=O)n(C)c2n1 | 5
COc1ccc(CCNC(=O)c2nnc(CS(=O)(=O)c3ccccc3)o2)cc1OC | -4
COc1ccc(N2CCN(C(=O)CCC(=O)N3CCOc4ccc(Cl)cc43)CC2)cc1 | 9
COc1ccc(OCC(=O)Nc2cc(-c3nn4c(C)nnc4s3)ccc2C)cc1 | 17
Clc1ccccn1 | 4
CC(NC(=O)c1cc(S(=O)(=O)N2CCOCC2)cn1C)c1ccccc1 (stereo unspecified) | 3
Cc1ccc(NC(=O)CCN2CCN(CCO)CC2)cc1Br | 11
COc1ccc(N2CCN(C3CCN(S(=O)(=O)c4ccc(F)cc4)CC3)CC2)cc1 | 4
O=[N+]([O-])c1ccc(F)cc1F | 14
O=C(COc1ccc2c(-c3ccccc3)cc(=O)oc2c1)NCC(O)c1ccccc1 (stereo unspecified) | 7
O=C(CSCC(=O)N1CCCCC1)Nc1nc(-c2cccs2)cs1 | 2
C/C(CC(=O)Nc1ccccc1C(F)(F)F)=N\NC(=O)c1cnccn1 | 4
Cc1ccccc1C(N)=O | 5
CCOC(=O)CN1CC23C=CC(O2)C(C(=O)O)C3C1=O (stereo unspecified) | 5
COc1ccc(CCNC(=O)c2cc3c(=O)n4ccccc4nc3n(CC3CCCO3)c2=N)cc1OC (stereo unspecified) | 7
COC(=O)c1cc(=O)n(Cc2cccs2)c(=Nc2ccc(F)cc2)s1 | 5
COc1ccc(OC)c(NC(=O)c2cc(S(=O)(=O)N3CCCC3)cn2C)c1 | 14
CC1CN(c2nc3ccccc3nc2SCC(=O)Nc2ccc(F)cc2)CC(C)O1 (stereo unspecified) | 7
COC(=O)c1ccccc1NC(=O)CCC(=O)N1CCSc2ccccc21 | 19
CCOC(=O)N1CCC(NC(=O)Cn2cc3c(n2)CCCCC3)CC1 | 10
Cc1ccc2oc(=O)c3cnn(CC(=O)N(CCC(C)C)Cc4ccco4)c3c2c1 | 10
CC(C)c1nc(SCC(=O)N2CCN(c3ccccc3)CC2)c2c(=O)n(C)c(=O)n(C)c2n1 | 4
CCc1nnc(NC(=O)c2ccc(S(=O)(=O)N(CCOC)CCOC)cc2)s1 | 2
COCOc1ccc(C=O)cc1OCOC | 5
C=CC(C)(O)CCC=C(C)C (stereo unspecified) | 7
CCc1cc(=O)n2[nH]c(C)c(-c3ccccc3OC)c2n1 | 9
CC(C)c1nnc(NC(=O)c2ccc(S(=O)(=O)N3CCOCC3)cc2)s1 | 2
Cc1ccc(CNC(=O)C(=O)NCC2OCCN2C(=O)c2ccc(Cl)cc2)cc1 (stereo unspecified) | 6
Cc1c(C)c2ccc(OCC(=O)NC(Cc3c[nH]c4ccc(O)cc34)C(=O)O)c(C)c2oc1=O (stereo unspecified) | 2
CCOC(=O)c1cccc(NC(=O)C2CCCN(S(=O)(=O)c3c(C)nn(C)c3C)C2)c1 (stereo unspecified) | -2
CC1=C(CO)C(=O)OC([C@@H](C)C2CC[C@H]3C4C[C@H]5O[C@]56[C@@H](O)C=CC(=O)[C@]6(C)C4CC[C@]23C)C1 (stereo partly specified) | 5
COc1ccc(OC)c2sc(NC(=O)c3ccc(S(=O)(=O)N4CCOCC4)cc3)nc12 | 5
Cc1ccccc1NC(=O)CCn1c(=O)oc2ccccc21 | 4
CCC/C(O)=C1\C(=O)CC(c2ccccc2)CC1=NCCc1c(C)[nH]c2ccc(C)cc12 (stereo unspecified) | 7
CCCCCn1c(CCNC(=O)CCC)nc2ccccc21 | 3
COC(=O)CC#N | 4
O=C(N[C@@H](Cc1ccccc1)C(=O)O)c1cccnc1 | 4
CSc1ccc(S(=O)(=O)N2CCN(Cc3ccc4c(c3)OCO4)CC2)cc1 | 11
COc1ccc(CCc2cc(OC)cc(=O)o2)cc1 | 2
Further compounds.
SMILES | Hedgehog cleavage
COc1ccc(CCNC(=O)c2cc3c(=O)n4ccccc4nc3n(CC3CCCO3)c2=N)cc1 (stereo unspecified) | 0
CCN(C(=O)C1CCN(c2nc(-c3ccc(OC)cc3)no2)CC1)c1ccc(OC)cc1 | 7
CCCCCn1c(CNC(=O)CCC)nc2ccccc21 | 0
CCN1CCN(c2nc3c(c(=O)[nH]c(=O)n3C)n2CCSc2nc3ccccc3s2)CC1 | 7
NC(Cc1c[nH]c2ccccc12)C(=O)Nc1ccccc1 (stereo unspecified) | 3
CC1(C)CC[C@]2(C(=O)O)[C@H](O)C[C@]3(C)C(=CCC4[C@@]5(C)C[C@H](O)[C@H](O)[C@@](C)(CO)C5CC[C@]43C)[C@@H]2C1 (stereo partly specified) | 4
O=C(O)[C@@H]1CCCN1C(=O)c1ccccc1N1C(=O)[C@@H]2Cc3c([nH]c4ccccc34)C(c3cccc(Cl)c3)N2C1=O (stereo partly specified) | 2
Cc1ccc2c(c1)N(C(=O)CCC(=O)N1CCN(c3ccccc3)CC1)CCO2 | 11
O=C(CSc1nnc(C2COc3ccccc3O2)o1)NC1CCCCC1 (stereo unspecified) | 20
COc1ccc(C)cc1NC(=O)c1nnn(CCc2ccccc2)c1N | 10
CC1(C)C2CCC1(C)C(OC(=O)c1ccc(O)cc1)C2 (stereo unspecified) | 11
Cc1ccc(NS(=O)(=O)c2ccc3c(c2)CC(=O)N3)c(C)c1 | 11
Cc1c(OCC(=O)NCc2ccccn2)ccc2c(-c3ccccc3)cc(=O)oc12 | 2
CCc1cc(=O)oc2cc(OCC(=O)N3CC[C@@]4(O)CCCC[C@H]4C3)ccc12 | 7
O=C(NC1CCCc2ccccc21)C1CCN(C(=O)c2sccc2-n2cccc2)CC1 (stereo unspecified) | 10
O=C(CCC(=O)N1CCSc2ccccc21)NCc1cccc(Br)c1 | 17
CCOc1ccc(N(CC(=O)OC)S(=O)(=O)c2c(C)noc2C)cc1 | 0
COc1ccccc1N1CCN(C(=O)c2cc(-c3ccc(Br)cc3)on2)CC1 | 3
Cc1oc(-c2ccc(Cl)cc2)nc1CN1CCC(C(=O)N2CCc3ccccc3C2)CC1 | 0
Cc1ccc(C2CC(c3ccccc3Cl)n3nc(N)nc3N2)cc1 (stereo unspecified) | 11
Cn1cccc1Cc1nnc(SCC(=O)N2CCCCCC2)n1-c1ccc(F)cc1 | 20
Cc1cccc(N(C)c2cc(C)nc3nc(C)nn23)c1 | 25
COC(=O)c1c(NC(=O)C2CCCCC2)sc2c1CCN(C(C)C)C2 | 10
Cc1cc(NC(=O)CSc2nc(CC(C)(C)C)nc3c2c(=O)n(C)c(=O)n3C)no1 | 7
COC1OC(CO)C(O)C(O)C1O (stereo unspecified) | 7
COCCCNC(=O)c1ccc(CS(=O)(=O)c2ccc(Br)cc2)o1 | 12
Cc1cc(Nc2ccc(F)c(Cl)c2)n2nc(C)nc2n1 | 15
COc1ccc(C(=O)NC(=S)N2CCCCC2c2cccnc2)cc1OC (stereo unspecified) | 3
CCn1cc(C(=O)N2CC(C)CC(C)C2)c(=O)c2cc(S(=O)(=O)N(C)C)ccc21 (stereo unspecified) | 15
CC12CCC(=O)C=C1CCC1C2C(O)CC2(C)C1CCC2(O)C(O)CO (stereo unspecified) | 7
CC1CCCCN1S(=O)(=O)c1cn(C)c(=O)n(C)c1=O (stereo unspecified) | 4
Brc1ccc(-c2nnc3sc(CNC4CCCC4)cn23)cc1 | 5
Cc1cccc(C)c1Nc1nc2ccccc2o1 | 9
COc1cccc(CNC(=O)c2cc3ccccn3n2)c1 | 7
CCN(CC)CCNC(=O)c1cn(CC)c2ccc(S(=O)(=O)N(C)C)cc2c1=O | 12
Cc1ccc(CCNC(=O)CS(=O)Cc2nc(-c3cccc(C)c3)oc2C)cc1 (stereo unspecified) | 7

In a second layout: entries from further up
| canonical_smiles | Hedgehog cleavage |
| --- | --- |
| Cc1oc(-c2ccc(Cl)cc2)nc1CN1CCC(C(=O)N2CCc3ccccc3C2)CC1 | 0 |
| Cc1ccc(C2CC(c3ccccc3Cl)n3nc(N)nc3N2)cc1 (stereo unspecified) | 11 |
| Cn1cccc1Cc1nnc(SCC(=O)N2CCCCCC2)n1-c1ccc(F)cc1 | 20 |
| Cc1cccc(N(C)c2cc(C)nc3nc(C)nn23)c1 | 25 |
| COC(=O)c1c(NC(=O)C2CCCCC2)sc2c1CCN(C(C)C)C2 | 10 |
| Cc1cc(NC(=O)CSc2nc(CC(C)(C)C)nc3c2c(=O)n(C)c(=O)n3C)no1 | 7 |
| COC1OC(CO)C(O)C(O)C1O (stereo unspecified) | 7 |
| COCCCNC(=O)c1ccc(CS(=O)(=O)c2ccc(Br)cc2)o1 | 12 |
| Cc1cc(Nc2ccc(F)c(Cl)c2)n2nc(C)nc2n1 | 15 |
| COc1ccc(C(=O)NC(=S)N2CCCCC2c2cccnc2)cc1OC (stereo unspecified) | 3 |
| CCn1cc(C(=O)N2CC(C)CC(C)C2)c(=O)c2cc(S(=O)(=O)N(C)C)ccc21 (stereo unspecified) | 15 |
| CC12CCC(=O)C=C1CCC1C2C(O)CC2(C)C1CCC2(O)C(O)CO (stereo unspecified) | 7 |
| CC1CCCCN1S(=O)(=O)c1cn(C)c(=O)n(C)c1=O (stereo unspecified) | 4 |
| Brc1ccc(-c2nnc3sc(CNC4CCCC4)cn23)cc1 | 5 |
| Cc1cccc(C)c1Nc1nc2ccccc2o1 | 9 |
| COc1cccc(CNC(=O)c2cc3ccccn3n2)c1 | 7 |

Next section
SMILES | Hedgehog cleavage
COc1ccc(CNC(=O)c2cc(S(=O)(=O)N3CCOCC3)cn2C)cc1 | 0
Cc1ccc(NS(=O)(=O)c2c(C)nc3sccn3c2=O)cc1 | 10
Cc1ccc2c(c1)N(CC(=O)NCC(C)c1ccccc1)C(=O)c1cccnc1O2 (stereo unspecified) | 25
O=C(NCCN1C(=O)C2C3C=CC(C3)C2C1=O)Nc1ccccn1 (stereo unspecified) | 11
CCc1cccc2sc(NC(=O)c3ccc(N4C(=O)CCC4=O)cc3)nc12 | 4
COc1cccc(CNC(=O)Cn2cc3c(n2)CCCCC3)c1 | 11
C[C@@H]1O[C@@H](OC[C@H]2O[C@@H](Oc3c(-c4ccc(O)cc4)oc4cc(O)cc(O)c4c3=O)[C@H](O)[C@@H](O)[C@@H]2O)[C@H](O)[C@H](O)[C@H]1O | 5
CC12CCC(CC1=O)C2(C)C (stereo unspecified) | 5
CC1CCN(C(=O)CSc2nnc(Cc3cccn3C)n2CCc2ccccc2)CC1 | 20
O=C(CSc1cn(CCNC(=O)c2ccccc2)c2ccccc12)NCc1ccco1 | 7
Cc1ccc(C2c3c(oc4ccccc4c3=O)C(=O)N2c2nnc(C(C)C)s2)o1 (stereo unspecified) | 16
Oc1c(C(c2ccc(F)cc2)N2CCc3ccccc3C2)sc2ncnn12 (stereo unspecified) | 6
CCc1cc(=O)oc2cc(OCC(=O)N(CC)CC)c(Cl)cc12 | 2
Cn1cccc1Cc1nnc(SCC(=O)NCc2ccc(F)cc2)n1-c1ccc(F)cc1 | 25
CCN(CC)CCCNC(=O)CC1Oc2ccc(C)cc2NC1=O (stereo unspecified) | 8
Cc1nnc(NC(=O)CSc2nnc(Cc3cccn3C)n2-c2ccccc2)s1 | -3
COc1ccc(-c2noc(N3CCC(C(=O)Nc4ccc(OC)cc4OC)CC3)n2)cc1 | 9
CCn1c(=O)cc(OCC(=O)N2CCc3ccccc32)c2ccccc21 | 12
O=C(CCCCCN1C(=O)C2C3C=CC(C3)C2C1=O)Nc1nccs1 (stereo unspecified) | 9
Cc1ccc(NS(=O)(=O)c2cn(C)c(=O)n(C)c2=O)c(C)c1 | 7
CCOC(=O)CSc1nnc(Cn2c(=O)sc3ccccc32)n1C | 0
COc1ccc(Cn2cc(C(=O)c3ccccc3)c(=O)c3cc(OC)ccc32)cc1 | 5
COC(=O)c1c(C)c[nH]c1C | 5
CCc1c(C)c2ccc(OCC(=O)NCC3CCC(C(=O)O)CC3)c(C)c2oc1=O (stereo unspecified) | 7
CCOC(=O)N1CCN(C(=O)CCS(=O)(=O)c2cc3c(cc2Cl)NC(=O)CO3)CC1 | 17
O=C1CCC(C(=O)O)N1 (stereo unspecified) | 5
O=C(CC1Sc2ncnn2C1=O)Nc1ccc(Br)cc1 (stereo unspecified) | 6
CCc1cc(=O)oc2c3c(cc(OCC(=O)NCCCn4ccnc4)c12)OC(C)(C)CC3 | 8
COc1cc(OC)cc(-c2cc(NC(C)=O)n[nH]2)c1 | 2
